Compound activity as filed in PubChem.
GLA inh pH 4.5: qHTS Assay for Inhibitors of Human alpha-Galactosidase at pH 4.5. activity change, negative = inhibition, % at 105 µM. Alpha-galactosidase A (Homo sapiens), P06280. purified enzyme, 4-MU-alpha-Gal fluorescence, pH 4.5. 230,000 tested, under 10 active; inconclusive = small, poorly fitted or top-dose-only inhibition, or a rising curve; inactive = flat fitted curve, though single readings scatter; no compound was filed as active;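 note: 0% = full activity with enzyme and -100% = basal without enzyme; dose as in the result columns while the protocol names 77 µM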
Rango-impB inh: qHTS Assay for Inhibitors of Rango (Ran-regulated importin-beta cargo) - Importin beta complex formation | Importin subunit beta-1 (Homo sapiens), Q14974 | Rango CFP/YFP FRET sensor + importin beta, 45 min | Potency, µM (series often up to 92.2 µM), inactives show top-dose inhibition of complex formation | actives 0.031% (n = 340,000) | AID 540263, 2011; active = rising FRET ratio curve, often small or poorly fitted; inconclusive = mostly compound fluorescence or quenching in the first reads; inactive = flat curves in all reads;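 note: potency is the fitted concentration of half-maximal effect; 0% = DMSO wells and 100% = buffer wells lacking importin beta; nearly all actives have a fitted effect of over 15% in size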
Target sequence (Q14974 whole entry, looked up): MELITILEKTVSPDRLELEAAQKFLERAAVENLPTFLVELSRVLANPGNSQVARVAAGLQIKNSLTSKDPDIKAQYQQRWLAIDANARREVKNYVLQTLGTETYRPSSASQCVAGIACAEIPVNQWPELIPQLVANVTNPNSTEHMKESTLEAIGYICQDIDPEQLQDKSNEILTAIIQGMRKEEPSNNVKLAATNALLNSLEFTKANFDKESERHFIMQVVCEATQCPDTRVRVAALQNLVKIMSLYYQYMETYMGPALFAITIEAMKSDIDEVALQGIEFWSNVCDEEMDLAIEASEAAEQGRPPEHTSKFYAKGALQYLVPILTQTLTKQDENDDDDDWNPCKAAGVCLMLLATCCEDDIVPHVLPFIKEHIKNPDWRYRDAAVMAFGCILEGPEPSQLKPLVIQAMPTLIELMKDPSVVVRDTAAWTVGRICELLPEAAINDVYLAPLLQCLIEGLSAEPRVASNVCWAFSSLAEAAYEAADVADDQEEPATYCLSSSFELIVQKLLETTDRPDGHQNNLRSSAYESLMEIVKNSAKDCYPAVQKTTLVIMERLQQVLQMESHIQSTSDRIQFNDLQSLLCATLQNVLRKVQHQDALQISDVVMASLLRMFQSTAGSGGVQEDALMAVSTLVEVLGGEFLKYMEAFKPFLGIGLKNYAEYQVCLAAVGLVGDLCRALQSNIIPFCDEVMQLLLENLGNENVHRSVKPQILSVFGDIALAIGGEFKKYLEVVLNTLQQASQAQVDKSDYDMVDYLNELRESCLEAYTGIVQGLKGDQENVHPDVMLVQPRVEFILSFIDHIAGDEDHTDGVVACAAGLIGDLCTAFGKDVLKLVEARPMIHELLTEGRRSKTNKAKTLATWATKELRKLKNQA
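FRET biosensor (snurportin 1 IBB flanked by EYFP and cerulean), 50 nM, with compound 5 min, then 0.125 microM importin beta in PBS, 1 mM DTT, 0.02% Tween-20, 0.1% BSA. CFP/YFP ratio read after 45 min at room temperature; pre-read flags interference.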
miR-21 FLuc: qHTS Assay for Modulators of miRNAs and/orActivators of miR-21; HeLa miR-21 FLuc reporter, luciferase, 48 h; Potency, µM (highest dose often 38.3 µM), without a hit: top-dose reporter change, positive = more light; 340,000 tested, under 10 active; AID 2288, 2010; active = well fitted rising curve with a large enough effect; inconclusive = small, poorly fitted or top-dose-only effect; inactive = no such curve, though single readings can be large or run the other way;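 note: % of control where 0% means no effect; miR-21 action dims this reporter so a rising signal means less miR-21 action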
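HeLa cells stably expressing CMV-driven firefly luciferase with a downstream miR-21 binding sequence, endogenously expressing miR-21, were treated with titrations (up to about 40uM final) for 48 hours at 37 degree Celsius. Luciferase luminescence was read after lysis.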
Rango dissoc inh: qHTS Assay for Inhibitors of RanGTP induced Rango (Ran-regulated importin-beta cargo) - Importin beta complex dissociation; Snurportin-1 (Homo sapiens) + GTP-binding nuclear protein Ran (Homo sapiens) + Importin …; Potency, µM (series often up to 46.1 µM), for inactives: top-dose activity change, negative = inhibition; actives 0.071% (n = 340,000); Biochemical FRET Rango-importin beta, RanGTP-induced dissociation; active means falling FRET ratio curve, often poorly fitted, with flat reads before Ran was added; inconclusive means other falling curves, or compound fluorescence or quenching; inactive means flat or rising ratio curve;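 note: potency is the fitted concentration of half-maximal effect; % of control where 0% means no effect; nearly all actives have a fitted effect of over 45% in size; -100% = wells without RanGTP and RCC1; the record marks most hits as doubtful in a second field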
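FRET read at 45 min, room temperature: inhibitors block the CFP/YFP signal rise when RanGTP (0.6 uM Ran, 2 mM GTP, 0.2 uM RCC1) frees Rango (0.1 uM) from importin beta (0.25 uM). Pre-read after 5 min compound exposure flags interference.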
Active calls of the source: *; u = inconclusive; x = not tested or not shown; & = joins results of further samples; [ ] = remark or other dose. This is a subset, so the mix of outcomes need not match the whole.

SMILES | GLA inh pH 4.5 | Rango-impB inh | miR-21 FLuc | Rango dissoc inh
COc1ccc(C2=CC(=O)C[C@H](c3ccc(F)cc3)C2)cc1F | x | 3.0% | x | -10%
O=C(NCc1ccc(Cl)cc1)C1CCN(c2cnccn2)CC1 | -1[21.1 µM] | 4.4% | 3% | -6%
O=C(c1cccc(Cl)c1)N1CCN(C(=O)c2ccccc2F)CC1 | -6 | 3.1% | 0% | 2%
COc1cc(NC(=O)Cc2ccc(Cl)cc2)ccc1NC(=O)c1ccco1 | -9 | -3.5% | -6% | 2%
CC1CCCCC1NC(=O)COC(=O)Cc1ccc(Br)cc1 (configuration not stated) | 2 | 3.5% | 1% | -12%
CCOC(=O)C1=C(C)NC(C)=C(C(=O)OCC)C1c1nc2ccccc2[nH]1 | x | -1.3% | x | 5%
CN(CCCN1CCOCC1)Cc1cn(C)nc1-c1ccccc1F | 0 | u | 0% | -3%
Cc1ccc(SCC(=O)N2CCCC2)cc1 | -3 | -0.5% | -38% | -1%
N#CCCNS(=O)(=O)c1ccc(C(=O)OCC2CCCCC2)cc1 | x | 4.1% | 7% | -2%
COc1cc(OC)c(OC)cc1/C=C/c1cc(C(F)(F)F)[nH]c(=O)n1 | -1 | u | 0% | u
COc1cc(/C=C/C(=O)OCC(=O)N2CCC(C)CC2)ccc1OCC#N | x | 2.4% | x | 1%
CCN(CC(N)=O)S(=O)(=O)c1ccc(F)cc1 | 4 | 0.5% | -2% | 7%
CC(=O)N1c2ccc(S(=O)(=O)N(C)c3cc(C)ccc3C)cc2CC1C (configuration not stated) | x | 2.0% | -3% | 18%
CC1CN=C(N(C(=O)Nc2ccccc2)C(C)c2ccccc2)S1 (configuration not stated) | -10 | 0.3% | -13% | 16%
O=C(CSc1nnc(CNC(=O)c2ccccc2)o1)c1ccc(Cl)cc1 | x | -1.9% | 4% | 8%
Cc1ccc(S(=O)(=O)N2CCCCC2CCNC(=O)C(=O)NCc2ccco2)cc1 (configuration not stated) | x | -3.0% | x | -1%
CCOC(=O)c1nn(-c2ccccc2)c(=O)cc1OCC(=O)Nc1cccc(OC)c1 | x | -0.7% | x | 12%
CCOC(=O)N1CCN(C(=O)c2ccc(NC(=O)c3ccc(C)cc3)cc2)CC1 | 5 | -0.6% | 4% | -2%
C[C@H](NC(=O)c1nc[nH]c1C(=O)N1CCc2ccccc2C1)C(=O)OCc1ccccc1 | 5 | -0.8% | 3% | -20%
O=C(c1ccco1)N1CCN(S(=O)(=O)c2cc(Cl)ccc2Cl)CC1 | x | 2.0% | -8% | -14%
COc1ccc(S(=O)(=O)Nc2cccc3c2O[C@H](CN(C)C)[C@@H](C)CN([C@H](C)CO)C3=O)cc1 | x | -5.7% | x | u
COC(=O)c1cc(S(=O)(=O)N2CCC(C)CC2)cn1C | x | -0.1% | 0% | 7%
CC(NC(=O)Nc1ccc([N+](=O)[O-])cc1)C(c1cccs1)N1CCCC1 (configuration not stated) | -4 | -0.9% | 0% | 1%
CNC(=S)NN(c1ccccc1)c1ccccc1 | u | -0.4% | 1% | -6%
Cc1cc(C)c2c(=O)cc(C(F)F)oc2c1 | 10 | 4.1% | 0% | 8%
O=C(Cc1cccs1)Nc1nc(-c2ccccc2)cs1 | 5 | -2.0% | 4% | -8%
Cc1cccc(NC(=O)CN2CCN(C(=O)C(C)Oc3ccc(C#N)cc3)CC2)c1C (configuration not stated) | x | -1.1% | x | 2%
O=C(Nc1ccccc1F)c1ccc2nc(N3C(=O)CCC3=O)sc2c1 | 1 | 6.6% | -39% | -25%
CCN(CC)CCCNC(=O)c1cc2c(=O)[nH]c3ccc(C)cc3c2s1 | x | 2.6% | -6% | 0%
CCOC(=O)NN=C1c2ccccc2-c2ccccc21 | x | -0.8% | 5% | 3%
CCc1ccc(NC(=O)COC(=O)/C=C/c2c(C)nn(C3CCS(=O)(=O)C3)c2Cl)cc1 (configuration not stated) | 1 | -0.4% | 1% | 11%
Cc1cc2cc3c(cc2nc1SCC(=O)N1CCOCC1)OCO3 | x | 1.1% | -14% | 1%
CCc1cccc2c1NC1(CCCC1)CC2C (configuration not stated) | 7 | 0.3% | 6% | 4%
O=C(COC(=O)c1cccc(S(=O)(=O)NCc2ccccc2)c1)NCC1CCCO1 (configuration not stated) | 2 | -0.2% | 2% | -2%
O=c1c2ccccc2oc2cc(-c3ccc4cc[nH]c4c3)ccc12 | x | -1.9% | x | u
COc1cccc(C(=O)NC(=S)N2c3ccccc3CC2C)c1OC (configuration not stated) | x | 0.1% | -3% | 1%
Cc1ccc(-c2nc(N)sc2C)cc1 | -8 | -2.3% | -22% | -8%
Cc1ncoc1C(=O)NC1CC(C)(C)Cc2c1cnn2-c1ccc(F)cc1 (configuration not stated) | x | -5.0% | -4% | -4%
COc1cccc(N2CC(NC(=O)C(=O)c3c[nH]c4ccccc34)CC2=O)c1 (configuration not stated) | x | 0.1% | x | -3%
CCC(=O)Oc1ccc2c(C)c(Cl)c(=O)oc2c1 | u | u | -7% | u

Shown with each value named: entries from further up.
Cc1cc2cc3c(cc2nc1SCC(=O)N1CCOCC1)OCO3
  GLA inh pH 4.5 = x; Rango-impB inh = 1.1%; miR-21 FLuc = -14%; Rango dissoc inh = 1%

CCc1cccc2c1NC1(CCCC1)CC2C (configuration not stated)
  GLA inh pH 4.5 = 7; Rango-impB inh = 0.3%; miR-21 FLuc = 6%; Rango dissoc inh = 4%

O=C(COC(=O)c1cccc(S(=O)(=O)NCc2ccccc2)c1)NCC1CCCO1 (configuration not stated)
  GLA inh pH 4.5 = 2; Rango-impB inh = -0.2%; miR-21 FLuc = 2%; Rango dissoc inh = -2%

O=c1c2ccccc2oc2cc(-c3ccc4cc[nH]c4c3)ccc12
  GLA inh pH 4.5 = x; Rango-impB inh = -1.9%; miR-21 FLuc = x; Rango dissoc inh = u

Additional records
SMILES | GLA inh pH 4.5 | Rango-impB inh | miR-21 FLuc | Rango dissoc inh
C=CCN1C2CCCC1CC(NC(=S)Nc1ccc(Cl)cc1)C2 (configuration not stated) | 4 | 0.0% | 2% | -2%
COc1ccc(OCCCSc2ncccn2)cc1 | 6 | 2.9% | -58% | u
Cc1cnc(CNC(=O)c2ccc3oc(C(C)C)nc3c2)[nH]1 | x | -0.5% | -3% | 12%
COc1ccc(CCNC(=O)/C=C/c2ccc(C)cc2)cc1OC | -6 | 4.2% | -20% | -12%
O=C(CCN1C(=O)C2C3C=CC(C3)C2C1=O)NCC1CCCO1 (configuration not stated) | 1 | 5.4% | -8% | -6%
Nc1nonc1/C(=N/O)N1CCCC1 | -9 | -0.2% | -5% | 18%
Cc1[nH]c2c(C(=O)N3CCCC(CCC(=O)NCc4ccccc4F)C3)cccc2c1C (configuration not stated) | -4 | u | 11% | -26%
C/C=C/c1ccc(OCCCCNCc2ccco2)c(OC)c1 | -1 | -0.5% | -1% | 2%
Cc1cc(Cl)ccc1OC(C)C(=O)OCC(=O)c1ccc[nH]1 (configuration not stated) | x | -1.4% | x | 4%
Clc1ccccc1-c1ncc(-c2ccccc2)o1 | x | 0.5% | -56% | -4%
COCCNC(=O)COc1ccc(C)cc1C | 2 | 0.0% | -18% | -5%
COc1cc(CC(=O)NCCCc2ccccc2)cc(OC)c1OC | x | -1.8% | 0% | -12%
COc1cccc(OC)c1C(=O)Nc1ccc(N2CCN(C(=O)c3cccs3)CC2)cc1 | x | 0.4% | -2% | 12%
COc1ccc(N2C(=O)CSC2c2ccc(F)cc2)cc1 (configuration not stated) | x | -2.1% | 2% | 0%
COc1ccc(-c2coc3cc(OC(=O)N4CCOCC4)ccc3c2=O)cc1 | 5 | 6.3% | -17% | 0%
O=C(Nc1ccccc1Cl)NN1CCCCCC1 | x | -4.1% | x | 13%
Fc1cccc(Nc2nc(Cl)nc(Cl)n2)c1 | 3 | 1.4% | -2% | -12%
CCc1nnc(NC(=O)Cn2nc(-c3ccccc3OC)ccc2=O)s1 | 7 | 3.4% | 0% | 6%
Cc1cc([N+](=O)[O-])nn1CC(=O)Nc1ccccn1 | 1 | 3.4% | 3% | -2%
CCc1ccc(CNC(=O)C2CCN(c3nnc(C)c4c(C)n(-c5ccc(C)cc5)nc34)CC2)cc1 | x | 1.4% | 1%&-2% | 25%
CN(C)CCNC(=O)C(=O)NCC1OCCN1S(=O)(=O)c1cc(F)ccc1F (configuration not stated) | x | -5.1% | 0% | 2%
CCCCN(C)C1CCN(C(=S)Nc2cccc(SC)c2)CC1 | -3[21.1 µM] | -3.8% | 3% | 3%
CC1=C(C)C(=O)C(N2CCOCC2)=CC1=O | 4 | 3.3% | 0% | 0%
N#Cc1nc(-c2ccc(Cl)cc2)oc1N1CCCCC1 | -12 | 1.5% | -33% | 0%
CC(Sc1ccc([N+](=O)[O-])cn1)C(=O)Nc1nccs1 (configuration not stated) | x | 0.2% | 3% | -16%
CCOC(=O)N1CCC(NC(=O)c2ccc3c(c2)N(Cc2ccc(C)cc2)CCS3)CC1 | 12 | -1.5% | -6% | -7%
CCOC(=O)CNC(=O)C1CCCN(c2ncccn2)C1 (configuration not stated) | -2 | 0.1% | 0% | -12%
O=C(Nc1ccccc1C(F)(F)F)c1ccc(F)c(S(=O)(=O)N2CCOCC2)c1 | 3 | 0.5% | -5% | -2%
CCc1ccc(NC(=O)CNC(=O)Cn2ccc3ccccc3c2=O)cc1 | x | -1.2% | 7% | 1%
Fc1ccccc1-n1[nH]nnc1=S | 9 | -0.3% | 2% | -9%
Cc1cc(C)c(S(=O)(=O)Nn2cnnc2)c(C)c1 | 5 | 3.5% | -1% | 8%
COc1ccc2ccccc2c1CNC(=O)CC1C(=O)NCCN1CC(C)C (configuration not stated) | 2 | u | -2% | -13%
COc1cccc(C(=O)Nc2cccc(-c3nnc(-c4ccccc4)o3)c2)c1 | x | -0.6% | x | -8%
COc1ccc(N2C(=O)C3CCCN3C2c2ccccc2)cc1Cl (configuration not stated) | -4 | 5.4% | -2% | 8%
N=c1ccn2c(n1)OC1C(O)C(CO)OC12 (configuration not stated) | 10&-1&-1 | -0.7% | 6% | -17%
CCCCn1c(=O)nc2n(-c3ccccc3C)c3ccccc3cc-2c1=O | 18 | u | -8% | u
O=C(CSc1ccccc1)NNC(=O)c1ccccc1O | x | -0.1% | -32% | -2%
COc1ccc(NC(=O)c2[nH]c(C)c(C(C)=O)c2C)cc1 | 8 | 0.5% | -44% | -10%
NC(=NC(=O)c1ccccc1)N1CCOCC1 | 6 | -2.7% | -14% | 20%
COc1cc(C)c(NC(=O)COc2cccc3c2OC(C)(C)C3)cc1OC | x | -2.0% | x | -4%
CC(=O)N1CCC(=NNc2nc3ccccc3[nH]2)CC1 | 3 | 1.1% | -50% | 1%
Cc1nn(C(C)C(=O)O)c2ccccc12 (configuration not stated) | 3 | 1.9% | 0% | 5%
COc1ccc(-c2cc(C(=O)NNC(=O)c3csc(N4CCOCC4)n3)c3ccccc3n2)cc1 | x | 1.9% | x | 5%
O=C(COc1ccc(/C=N/NS(=O)(=O)c2ccccc2)cc1)NCCc1ccccc1 | 7 | 0.6% | -4% | -16%
Cn1c(=O)c2c(nc(NCCNC(=O)c3ccco3)n2Cc2ccccc2)n(C)c1=O | x | 3.8% | 11% | -6%
O=c1/c(=C\c2ccc(O)cc2)sc2nc(-c3ccccc3)c(-c3ccccc3)n12 | 9 | 0.2% | -1% | -7%
O=C(Nc1ccc([N+](=O)[O-])cc1NC(=O)c1ccccc1)c1ccccc1 | x | -0.5% | x | u
COc1ccc(C(=O)NCc2ccco2)cc1S(=O)(=O)NC1CC1 | x | -0.9% | x | 13%
CCC(=O)NNc1nc2c(F)cccc2s1 | -14 | 0.0% | -1% | -9%
CCN(CC)C(=O)[C@H]1C[C@H](CC(=O)NCc2cccc(C(F)(F)F)c2)C(=O)N2CCc3c([nH]c4ccc(Cl)cc34)[C@]12C | x | -0.3% | x | 0%
